CBX7 AlphaScr: blocks human CBX7 binding to H3K27me3 peptide; O95931; AlphaScreen His6-CBX7 / biotin-H3K27me3 peptide binding; active compounds read low; normalised signal (fraction of DMSO) (concentration not given with the values); 1.1% of 66,000 active; in the data active means normalised signal below about 0.5;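 further: 100 nL library stock added to about 20 µL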
Target sequence (O95931 whole entry, looked up): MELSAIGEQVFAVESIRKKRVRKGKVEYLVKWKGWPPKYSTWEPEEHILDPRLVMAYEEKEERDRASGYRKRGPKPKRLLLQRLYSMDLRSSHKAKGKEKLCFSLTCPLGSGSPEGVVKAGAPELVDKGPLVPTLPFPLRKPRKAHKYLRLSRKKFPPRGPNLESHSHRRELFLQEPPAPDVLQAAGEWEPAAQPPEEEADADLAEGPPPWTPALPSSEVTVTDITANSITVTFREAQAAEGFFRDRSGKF
CBX7 AlphaScr z-score: also measured in CBX7 AlphaScr; calls as there; z-score; measured here: z-score of CBX7 signal; some inactives read as strong as hits; reference of the scale not given here;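 same signal on another scale; lower means less binding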
Numbers without * were called inactive.

Each structure is followed by: CBX7 AlphaScr	CBX7 AlphaScr z-score
CN(C(=O)C1CCN(S(=O)(=O)c2cnc[nH]2)CC1)c1ccc(Br)cc1
  0.881	-0.992
O=C(CC1(O)C(=O)Nc2ccc(Cl)cc21)c1cccc(Br)c1 (centres undefined)
  1.01	0.344
Cc1ccccc1-n1c(/C=C/c2cn(Cc3ccccc3)c3ccccc23)nc2ccccc2c1=O
  0.909	-2.21
COc1ccc(NC(=O)c2nc[nH]c2C(=O)Nc2ccc(OC)cc2)cc1
  0.821	-3.51
COc1ccc(-c2cc(C(F)(F)F)nc(S(=O)(=O)CCC(=O)Nc3ccccc3F)n2)cc1
  1.11	3.09
COc1ccc(NC(=O)C2CCCN(S(=O)(=O)c3cnc[nH]3)C2)cc1Cl (centres undefined)
  1.07	2.94
CCOC(=O)c1cccc(NC(=O)c2cc3c(-c4cccc(OC)c4)nn(C)c3s2)c1
  1.01	0.346
Cc1ccc(OCCn2c(SCC(N)=O)nc3ccccc32)c(C(C)C)c1
  0.754	-6.13
COc1ccc(-c2cc(C(=O)NC(C)c3ccccc3)no2)cc1OC (centres undefined)
  0.942	-0.66
CN1CCN(C(=O)CN2CCN(Cc3ccc(Cl)cc3)C2=O)CC1
  0.949	-0.671
O=C(NCCC1=CCCCC1)c1cn(-c2ccc(F)cc2F)c(=O)c2ccccc12
  1.01	0.0983
CC(=O)N1CCc2cc(S(=O)(=O)N(CCO)Cc3ccccc3)ccc21
  1.17	1.75
COc1cc2c(cc1OC)-c1nnc(-c3cccs3)n1C1(CCCC1)C2
  0.969	-0.874
CCOC(=O)c1c(C)n(-c2ccc(C)cc2)c2ccc(OCC(O)Cn3nnc4ccccc43)cc12 (centres undefined)
  0.704	-8.28
CC(C)Cc1cc(C(=O)Nc2ccc(Br)cc2)no1
  1.08	2.45
O=C(Nc1nc(-c2ccc(Oc3ccccc3)cc2)cs1)c1cccc(F)c1
  0.994	-0.114
Cc1ccc(NC(=O)C2CCN(C(=O)c3cnn(-c4ccccc4)c3-n3cccc3)CC2)cc1
  1.19	1.45
CC(CCc1ccccc1)NC(=O)c1cc(Nc2ccc(C(C)C)cc2)nc2ccccc12 (centres undefined)
  1.45	12.5
COc1cccc(-c2nc(S(=O)(=O)c3ccccc3)c(N3CCOCC3)o2)c1
  0.882	-1.81
CC(=O)Nc1cccc(NC(=O)Nc2nonc2C)c1
  1.07	0.336
COc1ccc(NC(=O)c2cc3c(s2)-c2ccccc2OC3)c(OC)c1
  1.21	5.84
CCc1cccc(NC(=O)c2ccc(NS(=O)(=O)c3c(C)noc3C)cc2)c1
  1.01	0.47
CCCCc1ccc(NC(=O)CSc2nccn2-c2cccc(C)c2)cc1
  0.765	-0.234
NC(=O)CSc1nnc(Cc2cc(=O)[nH]c(=O)[nH]2)n1-c1ccc(Cl)cc1
  0.972	-0.712
COc1ccc(CCNC(=O)Cn2cnc3sc(C)c(C)c3c2=O)cc1OC
  1.01	0.226
C=CCn1c(=N)n(CC(O)COc2ccccc2)c2ccccc21 (centres undefined)
  1.03	1.02
CN1CCN(c2cc(-n3nc(-c4ccccc4)cc3-c3ccccc3)ncn2)CC1
  0.811	-2.03
CCN(CC)C(=O)C1CC(c2ccc(OC)cc2)=NO1 (centres undefined)
  1.06	0.743
COc1ccccc1NC(=O)CCc1nc(-c2ccccc2F)no1
  1.13	4
Cc1ccc(CCNC(=O)CN2CCN(Cc3ccc(C)cc3)C2=O)cc1
  1.04	0.712
Cc1oc(-c2ccc(Cl)cc2)nc1CN1CCC(C(=O)NC(C)CCc2ccccc2)CC1 (centres undefined)
  1.12	1.7
Cc1ccc(-c2nnc(-c3ccc(Br)cc3)o2)cc1S(=O)(=O)N1CCOCC1
  0.93	-1.08
Cc1cccnc1NCC(O)COc1ccccc1 (centres undefined)
  1.33	2.58
CCOc1cc2c(cc1OCC)C(c1c(F)cccc1Cl)NCC2 (centres undefined)
  0.977	-0.11
COc1ccccc1N1CCN(C(=O)c2cc(-c3ccc(C)s3)nc3ccccc23)CC1
  0.942	-1.71
O=C(Nc1ccccc1C(=O)O)c1ccc2c(c1)C(=O)N(c1nccs1)C2=O
  1.06	0.432
O=C(NCc1ccc(Cl)cc1)c1cc2nc(-c3ccc(Br)cc3)cc(C(F)(F)F)n2n1
  1.07	1.87
COc1ccc(CN2CC(C(=O)NCCCN3CCCC(C)C3)CC2=O)cc1 (centres undefined)
  1.08	1.58
Cc1cccc(-n2ccnc2SCC(=O)Nc2ccc(Cl)cc2)c1
  0.815	-0.184
COc1ccc(-c2nn(C)c3sc(C(=O)N4CCCC4)cc23)cc1OC
  0.963	-1.04
Cc1ccc(-n2ncc(C(=O)Nc3ccc(F)c(Cl)c3)c2C2CCNCC2)cc1
  1.06	0.747
COc1ccc(-c2nc(SCC(=O)Nc3ccc4c(c3)OCCO4)c(-c3ccc(F)cc3)[nH]2)cc1
  0.965	-0.148
CCN1C(=O)c2ccccc2S(=O)(=O)c2ccc(C(=O)N3CCCCC3C)cc21 (centres undefined)
  1	0.0177
COc1ccc2nc(NC(=O)c3nn(-c4ccccc4OC)c(=O)c4ccccc34)sc2c1
  0.96	-1.13
CCCCCCCCC12CCC(O)(CC1)CC2
  0.991	-0.0985
Cc1ccc(CCN2CC(C(=O)NCCCN3CCCCC3C)CC2=O)cc1 (centres undefined)
  1.02	0.689
COC(CNC(=O)c1ccc2c(c1)N(Cc1cccc(F)c1)C(=O)c1ccccc1S2)OC
  1.07	0.887
CCOc1ccc(NS(=O)(=O)c2ccc3[nH]cc(C(=O)NCC4CCCO4)c(=O)c3c2)cc1 (centres undefined)
  1.06	1.05
C=CCn1c(Cc2c[nH]c3ccccc23)nnc1SCC(=O)NCc1ccccc1
  1	0.0686
Cc1cccc(-c2nnc(SCC(=O)N3CCCCC3C)o2)c1 (centres undefined)
  0.969	-0.0702
CC1CC(C)CN(C(=O)C2CCC(CNS(=O)(=O)c3cccc4cccnc34)CC2)C1 (centres undefined)
  0.999	-0.0248
CCN(CC)c1nc(-c2ccccc2)nc2ccccc12
  1.06	2.28
CCOc1ccc(Nc2cc(C)nc3nc(C)nn23)cc1
  1.01	0.19
CCOC(=O)CNC(=O)c1cc2c(n(-c3ccc(Cl)cc3)c1=O)CC(C)(C)CC2=O
  1.03	0.747
O=C(Nc1ccc(OC(F)(F)F)cc1)c1cnc2sccn2c1=O
  0.944	-0.938
CC(C)(C)c1ccccc1OCC(O)CN1CCN(c2cccc(Cl)c2)CC1 (centres undefined)
  0.946	-1.26
COc1ccc(Cn2c(=O)c3cccnc3n(Cc3cccc(F)c3)c2=O)cc1
  1.21	3.81
Cc1nc2c(cnn2-c2ccccc2Cl)c(=O)n1-c1ccc(C(C)C)cc1
  0.847	-2.34
Cc1cc2c(=O)n(CC(=O)Nc3ccc(Oc4ccccc4)cc3)cnc2s1
  1.01	0.329
COc1ccc(-c2cc(C(=O)Nc3ccc4c(c3)OCO4)no2)cc1OC
  1.04	0.552

Quoted at random: 7 entries already listed
Each structure is followed by: CBX7 AlphaScr	CBX7 AlphaScr z-score
Cc1ccc(NC(=O)C2CCN(C(=O)c3cnn(-c4ccccc4)c3-n3cccc3)CC2)cc1
  1.19	1.45
COc1ccc(-c2cc(C(=O)NC(C)c3ccccc3)no2)cc1OC (centres undefined)
  0.942	-0.66
O=C(Nc1nc(-c2ccc(Oc3ccccc3)cc2)cs1)c1cccc(F)c1
  0.994	-0.114
COc1ccc(NC(=O)c2nc[nH]c2C(=O)Nc2ccc(OC)cc2)cc1
  0.821	-3.51
CCOC(=O)c1cccc(NC(=O)c2cc3c(-c4cccc(OC)c4)nn(C)c3s2)c1
  1.01	0.346
CN1CCN(c2cc(-n3nc(-c4ccccc4)cc3-c3ccccc3)ncn2)CC1
  0.811	-2.03
CCOc1ccc(Nc2cc(C)nc3nc(C)nn23)cc1
  1.01	0.19

The results go on.
Each structure is followed by: CBX7 AlphaScr	CBX7 AlphaScr z-score
Cc1cc(N2CCCCC2)nc2ccc(NC(=O)c3ccccc3F)cc12
  1.16	1.02
CCC(CC)C(=O)NCCc1cc2c(OC)ccc(OC)c2[nH]c1=O
  1	-0.00222
CCOc1ccc(C(=O)Nc2ccc3nc(N4CCC(C)CC4)cc(C)c3c2)cc1
  1.13	1.43
CCOc1ccc(NC(=O)CSc2nccn2-c2ccc(OC)cc2)cc1
  0.95	-0.763
CN(CC(=O)Nc1c2c(nc3c1CCC3)CCCC2)Cc1ccccc1
  0.242*	-10.1*
COc1ccc(OC)c2[nH]c(=O)c(CCNC(=O)C3CC3)cc12
  0.989	-0.491
O=C(Nc1ccc(Cl)cc1)Nc1ccc(Cc2ccncc2)cc1
  0.928	-0.93
CCOc1ccc(NC(=O)C(=O)NCCCn2ccnc2)cc1
  0.904	-1.15
Cc1ccccc1-c1nnc(NC(=O)c2c(-c3ccccc3Cl)noc2C)s1
  1.06	0.978
Cc1nc2c(C(=O)NCCC(C)C)cnn2c(C)c1Cc1ccc(Cl)cc1
  0.957	-1.26
CCOc1ccc2c(c1)c(=O)c(C(=O)c1ccc3c(c1)OCO3)cn2Cc1cccc(F)c1
  0.829	-0.604
COc1ccc(C2CC(=O)C3=C(C2)Nc2ccccc2NC3c2ccc3ccccc3c2)cc1 (centres undefined)
  0.905	-1.48
COCCCNC(=O)c1ccc2c(=O)n(Cc3ccc(OC)cc3)c(=O)[nH]c2c1
  1.02	0.407
Ic1ccc(Nc2ncnc3ccccc23)cc1
  1.08	2.44
COCCN1Cc2cccc(C(=O)Nc3ccc4c(c3)OCCO4)c2C1=O
  1.01	0.215
C=CCn1c(SCC(=O)NC2CCCC2)nnc1-c1cccnc1
  1.18	1.77
Cc1ccc2[nH]c(C)c(CCNS(=O)(=O)c3ccc(C)c(C)c3C)c2c1
  0.951	-0.467
Cc1ccccc1NC(=O)Cn1cc(S(=O)(=O)c2ccccc2)c(=O)c2cc(F)ccc21
  0.821	-2.93
CC(C)c1ccc(NC(=O)C(c2ccc3c(c2)OCO3)N2CCC3(CC2)OCCO3)cc1 (centres undefined)
  0.921	-1.79
CCN(CC)C(C(=O)Nc1ccc(C(C)C)cc1)c1ccc2c(c1)OCO2 (centres undefined)
  0.97	-0.667
COc1cccc(NC(=O)Cn2cnc3sc(C)cc3c2=O)c1
  0.976	-0.646
CCCCCCCNC(=O)c1ccc(C#CC2(O)CCCCC2)cc1
  0.996	-0.0535
Cc1c(C)n(C)c2ccc(C(=O)NCc3cccs3)cc12
  0.872	-2.29
COc1cc(OC)cc(Oc2nc(C)c(Cl)c(C)c2C(N)=O)c1
  0.995	-0.00453
CCOc1ccc(OCC)c(NC(=O)c2cnn(-c3ccccc3)c2-n2cccc2)c1
  0.969	-1.25
O=C(Cc1ccc(F)cc1)Nc1c2c(nn1-c1ccc(F)cc1)CS(=O)(=O)C2
  1.01	0.109
Cc1ccccc1Cc1c(C)nc2nc(SCC(=O)NCc3c(F)cc(F)cc3F)nn2c1C
  0.943	-0.0991
Cc1nc(Nc2nc(-c3ccccc3)cc(=O)[nH]2)nc2c(C)cccc12
  0.99	-0.0102
CCCCNS(=O)(=O)c1ccc2nc(-c3cccs3)cc(C(=O)NCC(OC)OC)c2c1
  0.951	-0.672
CCCCc1ccc(NC(=O)COc2cccc(Cl)c2)cc1
  1.04	0.081
Cc1cccc(OCc2nc(-c3ccncc3)no2)c1C
  1.02	0.585
CCC(=O)N1CCc2cc(S(=O)(=O)NCCCN3CC(C)CC(C)C3)ccc21 (centres undefined)
  1.01	0.198
Cc1ccccc1CN1C(=O)CSc2ccc(C(=O)NC(C)c3ccccc3)cc21 (centres undefined)
  1.34	3.25
O=C1CSC(c2ccc(Br)cc2)N1c1ccccn1 (centres undefined)
  1.06	1.77
O=C(Nc1ccc(-c2nc3ccccc3o2)cc1)C1CCCCC1
  1.03	1.2
Cc1cccc(CCNC(=O)c2c[nH]c3ccc(S(=O)(=O)Nc4ccccc4C)cc3c2=O)c1
  0.732	-3.68
CN1CCN(c2ccc(Nc3ccnc4cc(Cl)ccc34)cc2Cl)CC1
  0.975	-1.03
Cc1cc2nc(C)n(CCCNC(=O)Nc3cccc4ccccc34)c2cc1C
  1.01	0.487
CCC1=Nc2cc(C(=O)NCc3ccccn3)ccc2Sc2ccc(Cl)cc21
  0.808	-2.75
Cc1ccc(Nc2ncc(C(=O)N3CCN(C)CC3)c3ccccc23)cc1Cl
  1.11	3.22
CCCCC1(O)CC(c2ccc(OC)cc2)NC(c2ccc(OC)cc2)C1C (centres undefined)
  1.03	0.945
CCC1Sc2ccccc2N(CC(=O)NCCN2CCCCC2C)C1=O (centres undefined)
  1.05	1.72
CCOC(=O)c1cccc(NC2c3ccccc3C(=O)N2Cc2ccccc2Cl)c1 (centres undefined)
  1.01	0.0125
C=CCn1c(SCC(=O)Nc2ccc(F)c(F)c2)nnc1-c1cccnc1
  1.03	0.242
O=C(NCc1ccc(Cl)cc1)c1cnn(-c2ccccc2)c1-n1cccc1
  1.03	1.38
CCC(C)NC(=O)CSCc1nc(-c2ccc(Cl)cc2)oc1C (centres undefined)
  1.25	2.62
CCOC(=O)c1cnc2ccc(OCC)cc2c1NC1CCCCCC1
  1.38	4.29

Compound activity deposited in PubChem by several laboratories.

Only part of the results is shown; count on the stated rates, not on these rows.
